Screening data from PubChem BioAssay.
StopGo reporter = High Throughput Screening for Foot and Mouth Disease Virus Antivirals; human cells with a luciferase reporter of 2A StopGo recoding; control for the full effect not named in the record; Potency, µM (titrated, usually from 57.9 µM), for the others: at the highest dose signal change, negative = less light; 1.2% of 410,000 active; AID 1159524, 2015; active = well fitted falling curve with a large enough effect; inconclusive = small, poorly fitted or top-dose-only effect; inactive = no such curve, though single readings can be large or run the other way; tested in HEK293T cells; also: % is scaled to controls: 0 for no effect and ±100 for the full control effect; nearly all actives have a fitted effect of over 45% in size; luciferase light after 4 h
NS1 inh = qHTS Assay for Inhibitors of Influenza NS1 Protein Function; Potency, µM (series often up to 46.1 µM), for the others: top-dose activity, positive = more growth; 0.4% of 270,000 active; S. cerevisiae slowed by influenza A NS1, growth recovery by OD600; also: actives are rising curves; nearly all actives have a fitted effect of over 50% in size
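Growth recovery, yeast-based: influenza A NS1 expressed in S. cerevisiae causes slow growth, and suppressors are detected by OD600. The parent strain without NS1 is used as positive control.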
Cruzain noTriton = qHTS Assay for Promiscuous and Specific Inhibitors of Cruzain (without detergent). Potency, µM, inactives show max response, negative = inhibition, most hits filed as inhibitors. 2.3% of 200,000 active. Cruzipain (Trypanosoma cruzi), P25779. purified cruzain, Z-FR-AMC fluorescence, no detergent; active = well fitted curve in the direction sought with a large enough effect; inconclusive = small, poorly fitted or top-dose-only effect, or another doubt; inactive = no such curve, though single readings can be large; an effect the other way counts as inactive or inconclusive;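 also: plate controls were enzyme without inhibitor for no effect and buffer without enzyme for full effect; nearly all actives have a fitted effect of over 40% in size; top concentration of the series not given in the record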
Target sequence (P25779 123-467 limits assumed): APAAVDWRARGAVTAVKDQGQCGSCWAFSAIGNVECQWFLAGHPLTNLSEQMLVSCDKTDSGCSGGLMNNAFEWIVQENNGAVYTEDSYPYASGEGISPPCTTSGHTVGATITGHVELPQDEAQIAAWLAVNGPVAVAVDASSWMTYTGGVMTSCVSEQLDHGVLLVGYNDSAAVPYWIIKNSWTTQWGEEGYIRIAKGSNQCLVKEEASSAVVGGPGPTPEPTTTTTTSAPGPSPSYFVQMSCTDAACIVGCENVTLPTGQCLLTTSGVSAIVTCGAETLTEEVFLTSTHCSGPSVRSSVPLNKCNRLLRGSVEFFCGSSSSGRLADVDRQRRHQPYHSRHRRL
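Purified cruzain at 1.5 nM, pre-incubated 15 min with compound at room temperature in 100 mM sodium acetate pH 5.5, 5 mM DTT, 0.00005% Triton X-100. Reaction started with 2 uM Z-FR-AMC; AMC fluorescence increase over 60 s gives rate.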
Marburg entry inh = qHTS for inhibitors of binding or entry into cells for Marburg Virus; 1.8% of 300,000 active; Potency, µM (series often up to 37.8 µM), for the others: at the highest dose activity change, negative = inhibition, usual class: inhibitors; Marburg virus pseudotyped entry inhibition, cell reporter; control for the full effect not named in the record; about a third of the inactives were read at about 46 µM; active = well fitted inhibition curve with a large enough effect; inconclusive = small, poorly fitted or top-dose-only effect, or effect the other way; inactive = flat fitted curve, though single readings scatter; tested in HEK293 cells; about a fifth of its hits are not listed in these tables; also: % is scaled to controls: 0 for no effect and ±100 for the full control effect; luciferase read-out
LASV entry inh = qHTS for Inhibitors of binding or entry into cells for Lassa Virus | Potency, µM (doses to about 37.9 µM), inactives show at the top dose activity change, negative = inhibition, hits mostly inhibitors | 1.2% of 300,000 active | Lassa virus pseudotype entry inhibition, cell reporter; control for the full effect not named in the record | AID 540256, 2011; active means well fitted inhibition curve with a large enough effect; inconclusive means small, poorly fitted or top-dose-only effect, or effect the other way; inactive means flat fitted curve, though single readings scatter; tested in HEK293 cells; also: % is scaled to controls: 0 for no effect and ±100 for the full control effect; nearly all actives have a fitted effect of over 50% in size; luciferase read-out
RE007 growth inh = qHTS Assay for Inhibitors of the HIV-1 protein Vpr; S. pombe RE007 Vpr strain, BacTiter-Glo ATP luminescence, 24 h; control for the full effect not named in the record; Potency, µM (highest dose often 92.2 µM), without a hit: top-dose activity change, negative = less growth; 0.21% of 360,000 active; active = well fitted falling curve with a large enough effect; inconclusive = small, poorly fitted or top-dose-only effect; inactive = no such curve, though single readings can be large or run the other way;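 also: % is scaled to controls: 0 for no effect and ±100 for the full control effect; nearly all actives have a fitted effect of over 50% in size; the assay follows cell death caused by Vpr and the record does not say whether a fall means rescue or toxicity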
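Fission yeast RE007 carrying one integrated HIV-1 vpr copy, seeded at OD 0.01 in PMG+AL medium with 23 nL pinned compound. Grown 24 h at 30 degrees; viability read by BacTiter-Glo luminescence after 5 min.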
SARS PLpro yeast = qHTS of Yeast-based Assay for SARS-CoV PLP; Potency, µM (top dose mostly 32.9 µM), inactives show at the top dose activity, positive = growth rescue; S. cerevisiae expressing SARS-CoV PLpro, growth rescue; control for the full effect not named in the record; AID 485353, 2010; 0.19% of 330,000 active; also: 0% is about no effect; nearly all actives have a fitted effect of over 55% in size; growth read by luminescence after 48 h
Cruzain inh Det = qHTS Assay for Promiscuous and Specific Inhibitors of Cruzain (with detergent). purified cruzain, Z-FR-AMC fluorescence, 0.01% Triton. Potency, µM, inactives show max response, negative = inhibition, usual class: inhibitors. Cruzipain (Trypanosoma cruzi), P25779. 0.43% of 200,000 active. AID 1478, 2009; active = well fitted curve in the direction sought with a large enough effect; inconclusive = small, poorly fitted or top-dose-only effect, or another doubt; inactive = no such curve, though single readings can be large; an effect the other way counts as inactive or inconclusive;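 also: plate controls were neutral wells for no effect and buffer without enzyme for full effect; nearly all actives have a fitted effect of over 40% in size; top concentration of the series not given in the record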
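Detergent-containing run (0.01% Triton X-100) in acetate buffer pH 5.5 with 5 mM DTT: enzyme at 1.5 nM final, 15 min compound preincubation at room temperature, then 2 uM Z-FR-AMC substrate. Activity taken as 60 s fluorescence increase at 360/450 nm.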
* marks the source's active call; other numbers are inactive results; ? = inconclusive; nt = not tested or not shown; & = joins results of further samples; [ ] = remark or other dose. Unless noted, calls follow the shape of the dose curve; as a rule, active means well fitted rising curve with a large enough effect; inconclusive means small, poorly fitted or top-dose-only effect; inactive means no such curve, though single readings can be large or run the other way. Potency is read from the fitted curve at half-maximal effect.

Values run as follows: StopGo reporter	NS1 inh	Cruzain noTriton	Marburg entry inh	LASV entry inh	RE007 growth inh	SARS PLpro yeast	Cruzain inh Det
COc1ccccc1N1CCN(S(=O)(=O)CCNC(=O)C2CCCCC2)CC1
    ?	nt	nt	-3%	-23%	7%	-4%	nt
COC(=O)C1CCN(c2cc(=O)n(Cc3ccc(F)cc3)c(=O)[nH]2)CC1
    nt	17%	6%	-2%	-7%	11%	14%	-0.7%
CC(CCC(C)OC(=O)c1ccccc1C(=O)O)OC(=O)c1ccccc1C(=O)O (stereo not given)
    -6%	-4%	nt	5%	?	2%	-3%	nt
CC(=O)c1ccc(OCC(O)CN2CCN(S(=O)(=O)c3c(C)cc(C)cc3C)CC2)cc1 (stereo not given)
    -16%	-18%	nt	?	-19%	-2%	-2%	nt
O=c1ccc2cc(S(=O)(=O)Nc3ccc(Br)cc3)ccc2o1
    18%	-8%	nt	-18%	-4%	-4%	-2%	nt
COc1cccc(OCc2cc(C(=O)NC(C)c3cnn(C)c3C)no2)c1 (stereo not given)
    45%[activator]	9%	nt	nt	nt	3%	4%	nt
O=C(Nc1ccon1)c1ccc(OC2CCCC2)cc1
    -6%	-18%	-10%	?	?	38%	-11%	-1.8%
Cc1nc2ncnn2c(C)c1CCC(=O)NCc1ccc(Cl)cc1
    -4%	nt	-6%	3%[46.1 µM]	-3%[46.1 µM]	nt	nt	0.1%
CC(C)(C)NC(=O)c1ccc2nsnc2c1
    -5%	-12%	3%	?	-17%	-5%	1%	-5.0%
CCn1nc(C)c(CNC(=O)Nc2ccc3c(c2)OCO3)c1C
    0%	nt	nt	1%	21%	7%	-2%	nt
CCN(C#N)c1nc(NC(C)C)nc(NC(C)(C)C)n1
    -2%	2%	nt	?	2%	14%	-1%	nt
COc1cccc(-c2nn(-c3ccccc3)cc2C(=O)O)c1
    15%	-65%	-1%	0%	-18%	44%	4%	4.1%
CC(C)CN(C)C(=O)CC1C(=O)NCCN1C (stereo not given)
    0%	-1%	nt	22%[46.1 µM]	15%	-16%	1%	nt
Cc1ccc(-c2onc(C)c2C)cc1S(=O)(=O)NCc1ccco1
    30%[activator]	nt	-14%	nt	7%[46.1 µM]	nt	nt	-3.0%
Cc1ccc(C(=O)NC(=S)Nc2ccccc2N2CCOCC2)cc1C
    -27%	2%	nt	-7%	?	21%	3%	nt
O=C(NN1C(=O)c2cc(Br)ccc2NC1c1ccccc1Cl)c1ccncc1 (stereo not given)
    0%	6%	-8%	-1%	-6%	-1%	14%	1.4%
CC1CN(C(=O)CCC(=O)N2CCOCC2)c2ccccc2O1 (stereo not given)
    -15%	11%	nt	nt	nt	2%	-2%	nt
S=C(NCCN1CCOCC1)NC1CCCCC1
    13%	1%	nt	6%[46.1 µM]	23%[46.1 µM]	-7%	2%	nt
O=C(Nc1cc(F)ccc1F)c1ccc2c(c1)nnn2C1CCCC1
    44%[activator]	nt	-11%	nt	-2%[46.1 µM]	nt	nt	-1.8%
CSCCC(NC(=O)COc1ccccc1)C(=O)N1CCCC(C)C1 (stereo not given)
    3%	0%	nt	-11%[46.1 µM]	?	9%	-3%	nt
Nc1nc2ccccc2n1/N=C/c1cccnc1
    13%	nt	nt	0%	?	1%	nt	nt
CN(C)S(=O)(=O)c1ccc(NC(=O)c2c(F)cccc2Cl)cc1
    19%	1%	-1%	-17%[46.1 µM]	-15%	-5%	0%	1.8%
CC(C)N(C#N)c1nc(N2CCOCC2)nc(N2CCOCC2)n1
    -18%	4%	-5%	?	10%	16%	-2%	2.3%
CCc1ccc(C(=O)NNC(=O)C2CCN(c3ncnc4sc(C)c(C)c34)CC2)cc1
    32µM*	nt	nt	?	?	6%	-3%	nt
CCCCCSc1ncccc1C(=O)O
    41%[activator]	-5%	nt	?	1%	1%	-6%	nt
COc1cccc(CCc2nnc(CCC(=O)N3CCN(Cc4ccccn4)CC3)o2)c1
    0%	13%	nt	?	17%[46.1 µM]	6%	-2%	nt
CC(Oc1cc2oc(=O)c3c(c2cc1Cl)CCC3)C(=O)NCC1CCC(C(=O)O)CC1 (stereo not given)
    -12%	12%	nt	nt	nt	-3%	2%	nt
COc1ccc(C(=O)Oc2ccc3c(c2)OCO3)cc1OC
    40%[activator]	-14%	-2%	?	25%	-6%	-3%	-1.9%
CCc1cccc(C)c1NC(=S)NCc1ccc2[nH]c(C)cc2c1
    12%	?	?	-32%	?	-1%	?	-5.8%
Cc1ccnc(NC(=O)CCC(=O)N(CC(=O)NCCc2ccccc2)c2ccccc2F)c1
    -9%	-3%	nt	-1%[46.1 µM]	nt	-14%	0%	nt
COc1cccc(N2CCN(C(=O)c3ccc(CS(=O)c4ccc(C)cc4)o3)CC2)c1 (stereo not given)
    -15%	-9%	nt	?	?	7%	-2%	nt
COC(=O)CSc1ccc(-c2nc3ccc(C)cc3[nH]2)cn1
    -1%	-46%	-5%	10%	12%	-2%	-11%	-4.5%
CN(Cc1ccc(Cl)cc1)C(=O)c1ccccc1SCC(=O)N1CCCC1
    -27%	nt	nt	?	0%	-9%	3%	nt
COc1cc(OC)cc(-c2cc(N3C(=O)Nc4ccccc4N3O)n[nH]2)c1
    -17%	20%	3%	0%	-1%	1%	-12%	-7.7%
COc1ccc(N(CCC(=O)O)S(=O)(=O)c2ccc(C)cc2C)cc1
    -6%	-3%	nt	-14%[46.1 µM]	9%	1%	-1%	nt
CC1(c2ccc(OC(F)F)cc2)NC(=O)N(CC(=O)Nc2cccnc2Cl)C1=O (stereo not given)
    7%	nt	nt	17%	-6%	-11%	nt	nt
O=C(CNS(=O)(=O)c1ccc(Br)s1)NC1CCCc2ccccc21 (stereo not given)
    23%	-23%	-3%	21%	-17%	0%	-13%	-5.0%
COc1cccc(NC(=O)CCc2nnc3n(CC(C)C)c(=O)c4ccccc4n23)c1
    -10%	nt	-3%	?	nt	nt	nt	0.7%
COc1ccc2c(-c3ccccc3)cc(=O)[nH]c2c1
    0%	-5%	-5%	?	-19%	-19%	-12%	-4.9%
CN1CCN(C2=C(Cl)C(=O)N(C3CCCCC3)C2=O)CC1
    -23%	-1%	-1%	17%	1%	-3%	-2%	4.7%
Cc1ccc(N=C2CCCN2Cc2ccccc2)c(C#N)c1
    31%[activator]	0%	-15%	?	1%	6%	-4%	-0.9%
Cc1cc(C)cc(NC(=O)CC(C)n2nc(C)cc2C)c1 (stereo not given)
    -5%	nt	14%	nt	-4%[46.1 µM]	nt	nt	-1.6%
CC1(C)Cc2c(sc3nc(N/N=C/c4ccccc4)[nH]c(=O)c23)CO1
    ?	13%	?	?	-1%	-2%	-3%	-26%
O=C(CNC(=O)c1ccc(Cl)cc1)OCC(=O)c1ccc2c(c1)OCCO2
    34%[activator]	-5%	10µM*	-2%	6%	3%	13%	8.9µM*
Cc1ccc2c(c1)nnn2C1CCN(S(=O)(=O)c2ccc(C(=O)O)cc2)CC1
    3%	10%	nt	16%[46.1 µM]	-8%	-1%	-2%	nt
COc1cc(CC(=O)OCC(=O)N2CC(C)CC(C)C2)cc(OC)c1OC (stereo not given)
    -12%	1%	nt	?	-20%[46.1 µM]	0%	-1%	nt
O=C(c1cc2cc(Cl)ccc2[nH]1)N1CCC2(CC1)OCCO2
    54%[activator]	-17%	nt	nt	nt	14%	?	nt
Cc1ccc(S(=O)(=O)N2CCNC(=O)CC2)cc1
    4%	nt	nt	?	-11%	-7%	1%	nt
CCOc1ccc(NC(=O)Cc2cccc3ccccc23)c([N+](=O)[O-])c1
    -15%	-2%	0%	2%[46.1 µM]	4%	19%	-12%	-6.6%
CC(C)(C)n1nc2c(c1NC(=O)c1ccc(S(=O)(=O)N3CCCC3)cc1)CSC2
    -17%	?	12%	nt	nt	6%	nt	0.6%
O=C(O)c1ccc(CNCc2ccc(F)cc2)cc1
    -9%	4%	nt	-11%[46.1 µM]	-3%	17%	-2%	nt
CC1CCCC(C)N1S(=O)(=O)c1ccc(NC(=O)CCn2cnc3ccccc3c2=O)cc1 (stereo not given)
    2%	-4%	27%	-23%	-14%	-12%	-13%	2.9%
O=C(NCc1ccc(F)cc1)c1ccncc1
    -3%	25%	nt	nt	nt	2%	6%	nt
Cc1ccc(CNC(=O)c2cc3c(=O)n4ccccc4nc3n(Cc3ccco3)c2=N)cc1
    ?	13%	-21%	3%&-9%	11%	-15%	-2%	-5.4%
O=C(COc1ccccc1)N1CCN(C(=O)COc2ccccc2)CC1
    12%	4%	nt	7%[46.1 µM]	-1%	6%	1%	nt
CC(Oc1ccc(F)cc1)C(=O)N(CCC1=CCCCC1)c1c(N)n(Cc2ccccc2)c(=O)[nH]c1=O (stereo not given)
    -30%	nt	nt	?	-21%	-15%	-3%	nt
Cc1cc(N2CCOCC2)nc2ccccc12
    42%[activator]	0%	-8%	18%	8%	-3%	1%	-5.8%
COc1ccc(-c2cn3cc(Br)cnc3n2)cc1
    14%	-2%	nt	?	-25%[46.1 µM]	8%	0%	nt
O=C(O)c1cc(NS(=O)(=O)c2ccc3ccccc3c2)ccc1O
    10%	-6%	nt	nt	nt	7%	1%	nt
